Screens from PubChem.
ClpP mod – qHTS Assay for Activators of ClpP; Potency, µM (titrated, usually from 57.5 µM), without a hit: at the top dose activity change, negative = active; AID 651965, 2013; ATP-dependent Clp protease proteolytic subunit (Bacillus subtilis (strain 168)), P80244; 1.9% of 340,000 active; purified B. subtilis ClpP, FRET peptide cleavage, 20 min; active = well fitted falling curve with a large enough effect; inconclusive = small, poorly fitted or top-dose-only effect; inactive = no such curve, though single readings can be large or run the other way; also: potency is read from the fitted curve at half-maximal effect; the source files actives as falling curves though it sought activators and does not explain the sign; nearly all actives have a fitted effect of over 65% in size; many hits overshoot -100%
Target sequence (P80244 whole entry, looked up): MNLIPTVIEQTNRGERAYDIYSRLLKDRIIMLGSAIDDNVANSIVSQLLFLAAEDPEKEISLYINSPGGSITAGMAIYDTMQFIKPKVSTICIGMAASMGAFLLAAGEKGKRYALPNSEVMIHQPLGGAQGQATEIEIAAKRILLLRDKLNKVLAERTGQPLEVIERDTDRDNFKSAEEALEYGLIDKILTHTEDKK
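FRET quenching reversal measured ClpP activation: 10 microg/mL B. subtilis ClpP at pH 8 with the FRET-FV decapeptide, read at 430 nm after 320 nm excitation. The 20-min minus 0-min signal was scaled between DMSO/no-enzyme wells and ADEP (5.8 microM final).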
TRPML1 inh – blocks the human TRPML1 channel | 0.02% of 390,000 active | TRPML1-inducible cells, Ca2+ dye fluorescence, FDSS; hits give low values; inhibition of EC80 agonist-evoked calcium signal | activity change, negative = inhibition, % (concentration not given with the values) | AID 624415; in the data active means activity change below about -50%; inconclusive means about -30% to -50%; inactive means above about -30%;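 also: stimulus is agonist 54-4 at its EC80 concentration; % is scaled to controls: 0 for no effect and ±100 for the full control effect; compound concentration not given in the record; the text of the record puts the active cut at -80%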
Target sequence (Q9GZU1 whole entry, looked up): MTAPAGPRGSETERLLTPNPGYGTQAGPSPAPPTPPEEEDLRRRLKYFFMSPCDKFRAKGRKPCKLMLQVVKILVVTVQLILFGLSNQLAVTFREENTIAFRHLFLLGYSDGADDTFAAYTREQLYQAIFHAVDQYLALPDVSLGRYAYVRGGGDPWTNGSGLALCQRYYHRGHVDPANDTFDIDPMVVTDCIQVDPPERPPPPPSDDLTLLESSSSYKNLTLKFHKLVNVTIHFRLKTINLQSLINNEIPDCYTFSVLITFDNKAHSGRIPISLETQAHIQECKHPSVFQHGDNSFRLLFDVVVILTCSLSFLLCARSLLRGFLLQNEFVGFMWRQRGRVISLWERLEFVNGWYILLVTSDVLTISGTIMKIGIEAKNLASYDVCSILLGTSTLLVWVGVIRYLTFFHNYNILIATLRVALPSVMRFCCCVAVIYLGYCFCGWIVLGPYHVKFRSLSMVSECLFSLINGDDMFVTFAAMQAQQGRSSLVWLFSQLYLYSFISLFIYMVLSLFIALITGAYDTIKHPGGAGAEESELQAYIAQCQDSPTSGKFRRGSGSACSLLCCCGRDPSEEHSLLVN
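Calcium fluorescence in TRPML1-DL cells induced overnight with Tet: a 110 s read after compound pin addition, then a 110 s antagonist read after challenge with 54-4 at 4 uM final (EC80).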
Menin-MLL FL inh – inhibitors of human menin-MLL interaction, wild-type MLL peptide | Fluorescence polarization, fluorescein-MLL peptide displacement from menin | FP activity change, % at 61.4 µM | 290,000 tested, under 10 active | AID 1766; inconclusive = falling polarisation curve, or a change in total fluorescence; inactive = total fluorescence flat and polarisation flat or rising; no compound was filed as active; the % refers to the polarisation; negative = inhibition;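 also: % of control where 0% means no effect; inhibitors lower the polarisation; unlabelled MLL peptide was the positive control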
gsp ag – activates gsp, the McCune-Albright syndrome mutation; Potency, µM (doses to about 76.9 µM), for inactives: top-dose activation (cAMP increase), actives largely listed as activators; 0.13% of 340,000 active; gsp mutant cells, cAMP HTRF, 30 min; control for the full effect not named in the record; AID 624287; active = well fitted activation curve with a large enough effect; inconclusive = small, poorly fitted or top-dose-only effect, or another doubt; inactive = no such curve, though single readings can be large or run the other way; cell line not stated here;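 also: phosphodiesterase inhibitor Ro 20-1724 added with compounds to block cAMP breakdown; potency is read from the fitted curve at half-maximal effect; nearly all actives have a fitted effect of over 60% in size; about a fifth of the inactives were tested at one dose only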
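Cells in DMEM/10% FBS with G418 were pretreated with compounds in DMSO plus […] (300 uM stock) for 30 min at 37C. cAMP was measured by HTRF (cAMP-d2 plus anti-cAMP antibody-K) after 30 min at room temperature.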
TRPML1 agonist – activates the human TRPML1 channel | Q9GZU1 | activation, % (no concentration beside the values) | AID 624414 | TRPML1-expressing cells, Ca2+ dye fluorescence, FDSS; host cell line not named in the record; reference of the full effect not given here | 0.12% of 410,000 active; in the data active = activation above about 50%; inconclusive = about 30% to 50%; inactive = below about 30%; also: 0% is about no effect; the text of the record puts the active cut at 80%
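In this qHTS format, compounds were pin-transferred onto Ca8-dye-loaded TRPML1-DL cells induced with Tet overnight, and intracellular Ca2+ fluorescence was recorded kinetically for 110 s after a 10 s baseline. A subsequent 4uM final 54-4 (EC80) addition followed by a second 110 s read served as the antagonist phase.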
gsp antagonist – antagonists of gsp mutant (McCune-Albright syndrome); gsp-mutant cells, cAMP HTRF, 30 min; control for the full effect not named in the record; 0.4% of 340,000 active; Potency, µM (series often up to 76.9 µM), for inactives: top-dose activity change, negative = inhibition, most hits filed as inhibitors; AID 624288; active = falling curve of any shape with a large fitted effect; inconclusive = falling curve, mostly with a smaller effect; inactive = flat or rising curve; cell line not stated here;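 also: intracellular cAMP measured with PDE inhibitor Ro 20-1724 present during compound exposure; potency is read from the fitted curve at half-maximal effect; % is scaled to controls: 0 for no effect and ±100 for the full control effect; nearly all actives have a fitted effect of over 65% in size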
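Measurement of cellular cAMP by homogeneous time-resolved fluorescence following a 30 min compound exposure at 37C. The PDE inhibitor […] was present throughout; the assay buffer was DPBS with 0.05% BSA and 0.005% Tween 20.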
Numbers without * were called inactive; ? = inconclusive; · = not tested or not shown; & = joins results of further samples; [ ] = another dose, or the depositor's remark.

SMILES	ClpP mod	TRPML1 inh	Menin-MLL FL inh	gsp ag	TRPML1 agonist	gsp antagonist
Cc1ccc(NS(=O)(=O)N2CCOCC2)c(C)c1	1.7%	27	7.2	18%	-0.1	14%
Cc1ccc(NC(=O)N2CCC(CN3CCCC3)CC2)c(C)c1	-0.8%	-8	·	·	1.4	·
COC(=O)c1sc(-c2ccccc2)cc1NC(=O)c1ccc(F)cc1	-7.9%	-17	2.3	7%	0.0	21%
CC(C)OC(=O)N(C)C[C@H]1OCc2cnnn2CCCC(=O)N([C@@H](C)CO)C[C@H]1C	0.9%	32	·	13%	-0.2	·
CC(C)Cn1c(-c2cccc(S(=O)(=O)N3CCOCC3)c2)n[nH]c1=S	1.4%	13	·	11%	-1.0	-12%
Nc1nc(CN2CCN(c3ccc(F)cc3)CC2)nc(N2CCCc3ccccc32)n1	-1.5%	0	0.8	17%	-0.4	2%
CC(C)(C)C(=O)COc1ccccc1[N+](=O)[O-]	0.1%	1	0.4	-1%	-0.8	-6%
CNC(=O)COC(=O)c1cc(-c2ccco2)nc2ccccc12	3.6%	-16	?	-41%[inhibitor]	0.3	-26%
COc1ccc(OC)c(C2CC(=O)c3c([nH]c(C(=O)OC4CCC(C)CC4)c3C)C2)c1 (configuration not stated)	-2.3%	10	·	·	0.7	·
COc1ccccc1OCc1nc(C#N)c(NCc2ccco2)o1	0.1%	2	3.8	-3%	1.1	-15%
CC1CC(C)CN(C(=S)Nc2ccc3nc4n(c(=O)c3c2)CCCCC4)C1 (configuration not stated)	-4.4%	14	-6.3	-1%	5.2	6%
Cc1ccc(N2CC(NC(=O)c3cccc(Cl)c3)CC2=O)cc1C (configuration not stated)	2.4%	6	·	·	-0.8	·
Nc1ccc(N2CCCCC2)cc1N1CCCCC1	-9.9%	-5	2.5	4%	0.4	-1%
COc1ccc(Cl)cc1CNCCCSc1ncccn1	2.5%	0	3.1	-5%[15.4 µM]	0.4	9%
O=C(CCc1ccccc1)Nc1nc2n(n1)C(c1ccc(Cl)cc1)CC(=O)N2 (configuration not stated)	2.0%	2	5.6	17%	-1.1	1%
COCCn1c(=S)[nH]c2ccc(N(C)C)cc2c1=O	-1.5%	-9	-26	?	1.7	-8%
O=C(NCc1ccccc1)C1CCCN(S(=O)(=O)c2cccs2)C1 (configuration not stated)	-1.1%	2	-1.3	-5%	0.2	-6%
Cc1ccc(C)c(NC(=O)CSc2nncn2C)c1	-3.5%	-8	0.4	-9%	0.3	8%
O=C(CN(C(=O)c1cccc([N+](=O)[O-])c1)C1CCCCC1)Nc1ccc(Cl)c([N+](=O)[O-])c1	-1.1%	-4	5.1	10%[15.4 µM]	-1.1	-12%
CCCC1=NN(C(=O)CCc2ccccc2O)C(O)(C(F)(F)F)C1 (configuration not stated)	-0.4%	-9	6.5	24%	1.3	17%
Cc1cc(S(=O)(=O)Nc2ccc(-c3ccc(N4CCCCC4)nn3)cc2)c(C)cc1Cl	-12%	7	·	·	-0.9	·
O=S(=O)(/N=S1\CC=CCN1S(=O)(=O)c1ccccc1)c1ccccc1 (configuration not stated)	·	9	·	26%	6.5	50µM*
C=C(C)Cn1c(COc2ccccc2)nnc1SCC(=O)O	-2.1%	-4	1.8	?	-0.5	0%
CCc1sc(C(=O)NCCc2ccc(S(N)(=O)=O)cc2)cc1Br	·	7	-1.7	8%	1.9	-5%
N#Cc1cccnc1Nc1ccc(Cl)cc1	·	11	-0.9	6%[15.4 µM]	1.1	11%

Three entries out of the list, ordered by number of heavy atoms, rising.
SMILES	ClpP mod	TRPML1 inh	Menin-MLL FL inh	gsp ag	TRPML1 agonist	gsp antagonist
Nc1ccc(N2CCCCC2)cc1N1CCCCC1	-9.9%	-5	2.5	4%	0.4	-1%
Cc1ccc(NC(=O)N2CCC(CN3CCCC3)CC2)c(C)c1	-0.8%	-8	·	·	1.4	·
O=C(CN(C(=O)c1cccc([N+](=O)[O-])c1)C1CCCCC1)Nc1ccc(Cl)c([N+](=O)[O-])c1	-1.1%	-4	5.1	10%[15.4 µM]	-1.1	-12%

(list continues)
SMILES	ClpP mod	TRPML1 inh	Menin-MLL FL inh	gsp ag	TRPML1 agonist	gsp antagonist
O=C(Nc1nc(-c2cc(F)ccc2F)cs1)C1=COCCO1	-8.1%	9	·	7%[15.4 µM]	0.2	?
Cc1ccc(C(=O)N/C(=C\c2cn(C)c3ccccc23)C(=O)N2CCN(C)CC2)cc1	-1.2%	-6	·	-32%[inhibitor]	-0.6	-5%
CCOC(=O)C1CCCN(c2c(NCCc3ccc(Cl)cc3)c(=O)c2=O)C1 (configuration not stated)	-5.5%	-26	0.0	-7%	0.2	7%
CCOC(=O)CC1C(=O)NCCN1C(=O)c1cccc(C(F)(F)F)c1 (configuration not stated)	-2.0%	-11	0.6	9%	-0.2	5%
Cc1cc(C)nc(SCc2cc(=O)c(OC(=O)c3ccc(S(=O)(=O)N4CCCC4)cc3)co2)n1	-2.7%	-7	12	14%[15.4 µM]	0.5	-17%
Cc1ccc(NC(=O)c2ccco2)c([N+](=O)[O-])c1	·	16	-6.2	0%[15.4 µM]	2.0	12%
COCCCNC(=O)C1CCC(CNS(=O)(=O)c2ccc3c(c2)N(C(C)=O)CCO3)CC1 (configuration not stated)	-1.3%	10	·	-3%	0.5	-6%
COc1cccc(CCC(=O)Nc2cc3c(cc2C(=O)O)OCCCO3)c1OC	?	-4	·	-8%	1.4	-20%
CCc1ccc(N2CC(C(=O)N/N=C/c3cccc([N+](=O)[O-])c3)CC2=O)cc1 (configuration not stated)	-1.6%	3	4.9	26%	1.7	-6%
O=c1c2cnn(-c3ccccc3)c2nc(-c2cccs2)n1-c1ccc(Br)cc1	-0.3%	-5	17	14%	0.9	0%
CSc1nnc(SCC#N)s1	-1.0%	54	0.7	-9%[15.4 µM]	-0.2	-1%
CCOC(=O)N1CCC(NC(=O)CSCc2nc(-c3ccc(OC)c(OC)c3)oc2C)CC1	8.9µM*	3	-1.5	-9%	0.8	-4%
Cc1nc2cc(OCc3cc(C(=O)NC(C)c4cn(C)nc4C)no3)ccc2s1 (configuration not stated)	-1.3%	-12	·	11%	0.1	11%
O=C(OCCOc1cccc(Cl)c1)c1cc(S(=O)(=O)N2CCCCC2)ccc1N1CCOCC1	?	10	·	-31%[inhibitor]	1.6	-5%
O=[N+]([O-])c1ccc(COc2cccc(CN3CCCCC3)c2)cc1	1.3%	-7	·	·	-0.8	10%
Fc1ccc(-c2onc3ccc(C4OCCO4)cc23)cc1	·	0	?	-10%[15.4 µM]	0.9	11µM*
Cc1n[nH]c(C)c1S(=O)(=O)N(CC(=O)Nc1ccc2c(c1)OCCO2)c1ccc(C(C)C)cc1	0.1%	6	1.7	2%	0.0	?
CC(C)(C)NC(=O)Cn1c(=O)oc2cc(S(=O)(=O)N3CCc4ccccc43)ccc21	-0.8%	-1	6.9	5%	0.4	-4%
CN(CC(=O)Nc1ccc(F)cc1)C(=O)COc1ccccc1Cc1ccccc1	-3.4%	26	·	4%	1.6	-20%
Cc1ccccc1Cn1c(CN2CCN(c3cc(Cl)ccc3C)CC2)nc2c1c(=O)[nH]c(=O)n2C	0.1%	19	·	·	0.1	·
CCOC(=O)c1cnc2c(OC)cccc2c1N1CCN(c2ccc(OC)cc2)CC1	-8.6%	-3	5.4	14%	0.9	15%
O=C1CC(NNC(=O)c2ccccc2)C(=O)N1 (configuration not stated)	-0.5%	10	-0.5	-14%	-0.7	4%
COc1ccc(-n2ncc(C(=O)NCc3cccs3)c2C2CCN(C(=O)OC(C)(C)C)CC2)cc1	-1.8%	-8	·	·	0.8	·
O=C(CCS(=O)(=O)c1ccc(Cl)cc1)Nc1ccccc1Br	·	41	-3.7	?	2.9	6%
C=CCOc1ccc(C2NC(=O)c3ccccc3O2)cc1 (configuration not stated)	1.0%	-13	-0.7	-13%[15.4 µM]	0.4	-6%
Remaining list, next part.
SMILES	ClpP mod	TRPML1 inh	Menin-MLL FL inh	gsp ag	TRPML1 agonist	gsp antagonist
O=C(O)c1cn(-c2ccccc2)nc1-c1cccnc1	-1.1%	-15	3.3	13%	0.0	-11%
O=C(Nc1ccc(Cl)cc1)C(c1ccccc1)N1CCOCC1 (configuration not stated)	1.9%	7	-1.2	-2%	0.6	-12%
CCCc1cc(=O)[nH]c(SCC(=O)N2CCN(c3ccccc3OC)CC2)n1	-0.3%	0	·	·	0.3	·
Oc1csc(Cc2nc(-c3ccccc3F)cs2)n1	·	-2	2.9	-29%	-0.2	-1%
Cc1ccc(Cl)cc1NC(=O)C1CC(=O)Nc2ncnn21 (configuration not stated)	-0.9%	·	0.5	-3%	·	7%
Cc1c(C(=O)NCc2ccccc2)oc2c1C(=O)CCC2	0.2%	-10	3.8	-10%	-1.6	1%
O=C(CSc1ccc(-c2cccnc2)nn1)c1ccc([N+](=O)[O-])cc1	·	0	1.1	-10%[15.4 µM]	-0.4	-10%
CCc1ccc(NC(=O)CSc2nnc(CNC(=O)c3cccs3)o2)cc1	-0.2%	4	·	-6%	-1.1	4%
Cc1csc2nc(O)c(C(=O)NCCN3CCOCC3)c(=O)n12	·	-7	·	0%[15.4 µM]	0.6	-1%
O=C(OCC(=O)c1ccc[nH]1)c1ccc(C(F)(F)F)cc1	0.6%	-4	·	11%[15.4 µM]	-0.4	5%
Cc1occc1-c1nnc(SCC(=O)Nc2ccccc2)n1C	·	-7	-1.8	3%	0.1	4%
COC(=O)C1(C(=O)OC)Sc2ccccc2C1=O	44%	21	3.8	-58%[inhibitor]	-0.4	7%
Cc1ccc(NC(=O)COC(=O)C2(c3ccc(Cl)cc3)CCCC2)cc1	1.4%	-13	0.4	6%	2.2	?
O=C(Nc1ccc(-c2cn3ccsc3n2)cc1)C1CCCC1	-0.8%&-5.8%	4	-0.1	-45%[inhibitor]	0.0	7%
Cc1nc(-c2ccncc2)sc1C(=O)Nc1ccc(Br)cc1	·	-3	-1.4	?	-0.3	2%
Cn1cccc1Cc1nnc(SCC(=O)NC2CCCCC2)n1CCc1ccccc1	5.5%	-25	4.2	4%	1.6	-13%

Record cards, from the list above. Screens in order: ClpP mod	TRPML1 inh	Menin-MLL FL inh	gsp ag	TRPML1 agonist	gsp antagonist
Cc1cc(C)nc(SCc2cc(=O)c(OC(=O)c3ccc(S(=O)(=O)N4CCCC4)cc3)co2)n1 as listed: -2.7%	-7	12	14%[15.4 µM]	0.5	-17%
CCCc1cc(=O)[nH]c(SCC(=O)N2CCN(c3ccccc3OC)CC2)n1 as listed: -0.3%	0	·	·	0.3	·
Cc1csc2nc(O)c(C(=O)NCCN3CCOCC3)c(=O)n12 as listed: ·	-7	·	0%[15.4 µM]	0.6	-1%
CCOC(=O)N1CCC(NC(=O)CSCc2nc(-c3ccc(OC)c(OC)c3)oc2C)CC1 as listed: 8.9µM*	3	-1.5	-9%	0.8	-4%

Hits appear at their usual frequency. About 2.1% of those tested had a hit in this group.
